HPGD inh = inhibitors of human 15-hydroxyprostaglandin dehydrogenase (HPGD); P15428; purified HPGD, NADH fluorescence kinetic, PGE2 substrate; Potency, µM, for inactives: at the top dose activity change, negative = inhibition, usual class: inhibitors; 150,000 compounds, 4.3% hits; active = well fitted inhibition curve with a large enough effect (not every such curve was filed as active); inconclusive = small, poorly fitted or top-dose-only effect, or another doubt; inactive = no such curve, though single readings can be large or run the other way;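 also: top concentration of the series not given in the record; plate controls included wells without enzyme; inactives centre near -10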
Target sequence (P15428 whole entry, looked up): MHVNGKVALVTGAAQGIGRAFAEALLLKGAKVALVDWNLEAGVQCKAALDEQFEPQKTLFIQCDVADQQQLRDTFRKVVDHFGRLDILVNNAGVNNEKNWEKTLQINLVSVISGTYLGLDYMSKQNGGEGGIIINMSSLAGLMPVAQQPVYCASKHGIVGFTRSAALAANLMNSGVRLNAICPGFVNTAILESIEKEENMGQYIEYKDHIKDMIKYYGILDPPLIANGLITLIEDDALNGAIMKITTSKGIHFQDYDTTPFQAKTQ
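20 nM HPGD preincubated 15 min at room temperature with compound in 50 mM Tris-HCl pH 8, 0.01% Tween 20. Started with 1 mM NAD+ and 30 uM prostaglandin E2; NADH fluorescence (360/450 nm) read 5 times over 30-s intervals, last minus first.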
* hit, by the source's call; ? = inconclusive. % is scaled to controls: 0 for no effect and ±100 for the full control effect; potency is read from the fitted curve at half-maximal effect. This is a subset; the hit share may differ from the screen's.

| smiles | HPGD inh |
| --- | --- |
| CC(C)c1nc(SCC(=O)Nc2ccc(N3CCOCC3)cc2)c2ccccc2n1 | -9.8% |
| Cc1cc(Cl)ccc1OCC(=O)NCc1ccncc1 | -9.9% |
| N#CC1=C(N2CCOCC2)/C(=C\c2ccccc2)CC1 | -18.6% |
| CCN(CC)CCCNC(=O)C1c2ccccc2C(=O)N1Cc1ccc(C)cc1 (stereo unspecified) | -3.8% |
| CC(=O)c1c(O)cc(C(C)C)n(-c2ccccc2)c1=O | 2.8% |
| CCn1c(=N)n(CC(=O)c2ccc(OC)c(OC)c2)c2ccccc21 | -10.5% |
| COCCC(=O)NC12CC3CC(CC(C3)C1)C2 | 3.8% |
| COc1ccccc1N1CCN(C(c2cccs2)C(C)NS(=O)(=O)c2ccccc2)CC1 (stereo unspecified) | -6.5% |
| CC12CCC(C(=O)Nc3ccccc3Br)(C/C1=N\O)C2(C)C (stereo unspecified) | -12.3% |
| Cn1c(=O)c2c(nc(SCC(=O)c3cccs3)n2Cc2ccc(F)cc2)n(C)c1=O | -1.4% |
| CC(C)=C1C(=O)NN(c2ccc(F)c(Cl)c2)C1=O | 8.91µM* |
| Cc1nc2nc(Cc3ccccc3)[nH]n2c(=O)c1Cc1ccccc1 | -6.5% |
| C=CCNc1nc(N2CCCC2)nc2ccccc12 | -29.6% |
| c1n[nH]c(NCc2ccc3c(c2)OCO3)n1 | 1.8% |
| COc1cc(-c2nc(S(=O)(=O)c3ccc(C)cc3)c(N(C)C)o2)cc(OC)c1OC | -10.6% |
| COc1ccc(NS(=O)(=O)c2ccc3c(c2)CCC(=O)N3)c(OC)c1 | -8.1% |
| COc1ccc(S(=O)(=O)N(C)c2ccc(C(=O)N3CCOCC3)cc2)cc1OC | ? |
| COc1ccc(-c2noc(C3CCCN(C(=O)CCc4ccccc4)C3)n2)cc1 (stereo unspecified) | -23.5% |
| CCOC(=O)C1=C(C)N=c2s/c(=C3/C(=O)Nc4ccccc43)c(=O)n2C1c1ccc(C)cc1 (stereo unspecified) | ? |
| COc1ccc(N(CC(=O)O)S(=O)(=O)c2cccnc2)cc1 | -3.8% |
| CCC1=NN(C(=O)C(=O)NCCc2ccccc2)C(O)(C(F)(F)F)C1 (stereo unspecified) | -12.4% |
| CN(C)S(=O)(=O)c1ccc(S(=O)(=O)N(CC(=O)Nc2ccccc2)Cc2ccco2)cc1 | 1.3% |
| C/C(CC(=O)Nc1cccnc1)=N\NC(=O)C(=O)Nc1cccc(C)c1 | -3.3% |
| Cc1sc(NC(=O)C2CCCCC2C(=O)O)c(C(N)=O)c1-c1ccc(C(C)(C)C)cc1 (stereo unspecified) | -16.9% |
| O=S(=O)(c1ccc(Cl)cc1)N1CCC(N2CCCCCC2)CC1 | -4.0% |
| CCOC(=O)Cn1cc(/C=N/NC(=O)c2ccc(C#N)cc2F)c2ccccc21 | -6.1% |
| Cn1c(SCc2ccc(F)cc2)nnc1-c1ccccn1 | -3.1% |
| O=C(NCc1cccnc1)c1sc2ccccc2c1Cl | -17.7% |
| Cc1ccc(NC(=S)NC(C)CCc2ccccc2)cc1C (stereo unspecified) | -4.0% |
| Clc1cccc(-c2cc3nc4c(c(N5CCOCC5)n3n2)CCCC4)c1 | ? |
| COc1cc(OC)cc(C(=O)Nc2cccc(N3CCCC3)c2)c1 | -5.8% |
| Cc1c(Cl)cnc(NC(=O)CSc2nnc3ccccn23)c1Cl | -16.2% |
| CCCn1c(C)cc(C)c(C#N)c1=O | -17.0% |
| CCc1c(C)sc2nc(SCC(=O)Nc3cc(C)on3)n(CCOC)c(=O)c12 | -18.1% |
| N#CCCn1c(=O)c(CCc2ccccc2)nc2cnc(OCc3ccccc3)nc21 | -11.1% |
| O=C1NC(=S)N(c2cccc(Cl)c2)C12CCCCC2 | -8.9% |
| CCNC(=O)/C(C#N)=C/c1c(N2CC(C)OC(C)C2)nc2ccccn2c1=O (stereo unspecified) | -4.5% |
| CCc1ccc(C(=O)COC(=O)CNC(=O)CNC(=O)Cc2ccccc2)cc1 | -10.9% |
| O=c1oc2ccccc2c(N2CCCC2)c1CN1CCCC1 | -25.5% |
| O=C(NCc1ccco1)c1cc2n(n1)C(C(F)(F)F)CC(c1ccc(Br)cc1)N2 (stereo unspecified) | -6.1% |
| COc1cc(/C=C/c2nc(-c3ccccc3O)n[nH]2)cc(OC)c1OC | -27.3% |
| Cc1nc(N=Nc2cc(S(=O)(=O)O)ccc2S(=O)(=O)O)c(COP(=O)(O)O)c(C=O)c1O | ? |
| Cc1ccc(-c2nc(N=Nc3ccc(O)cc3)n[nH]2)cc1 | -26.3% |
| COc1cc(C(=O)NCCC(=O)NCc2ccc3c(c2)OCO3)cc(OC)c1OC | -8.0% |
| Cc1nc2ncnn2c(C)c1CCC(=O)Oc1ccccc1 | -1.5% |
| C=CCn1c(NCc2cc(C)ccc2O)nc2ccccc21 | -28.4% |
| O=C(CSCC(=O)NC1CCCC1)Nc1ccccc1 | ? |
| CC(C)[C@@H](CC(=O)N[C@@H]1CCNC[C@H]1C(=O)N[C@H](CC(=O)N[C@@H](CCC(=O)O)CC(=O)O)Cc1ccccc1)NC(=O)C[C@H](Cc1ccccc1)NC(=O)[C@@H]1CNCC[C@H]1N | -9.2% |
| CCCCNC(=O)C(c1ccc(OCC(=O)OC)c(C(=O)OC)c1)N(Cc1ccccn1)C(=O)CCCCCN1C(=O)NC(c2ccc(-c3ccccc3)cc2)C(C(=O)OCc2ccccc2)=C1C (stereo unspecified) | -9.1% |
| CCOC(=O)Cn1c(=O)oc2cc(S(=O)(=O)N3CCN(C(=O)c4ccco4)CC3)ccc21 | -7.3% |

(cont.)
| smiles | HPGD inh |
| --- | --- |
| CCOC(=O)Cc1c(C)nc2cc(-c3ccc(Cl)cc3)[nH]n2c1=O | -20.5% |
| COc1ccc2oc(=O)c(C(=O)N3CCc4ccccc43)cc2c1 | -4.3% |
| O=C(NCCc1ccccc1)C1CCN(S(=O)(=O)c2cccc3nsnc23)CC1 | -7.4% |
| Cc1ccccc1OCC(O)Cn1c(NCCN(C)C)nc2c1c(=O)n(C)c(=O)n2C (stereo unspecified) | -0.3% |
| CCOC(=O)c1c(CSc2ccc(C)cc2)oc2ccc(O)cc12 | -9.1% |
| CCOC(=O)C(Cc1ccccc1)C(=O)Nc1ccccc1C (stereo unspecified) | -5.9% |
| CCC(C)(C)N=C(NC#N)Nc1cccnc1 | -8.0% |
| CCC(C)NC(=O)C1c2ccccc2C(=O)N1Cc1cc(OC)ccc1OC (stereo unspecified) | -4.5% |
| CCOc1cc(C)c(S(=O)(=O)Nc2ccc(F)cc2)cc1C | -2.6% |
| CCC(=O)Nc1ccc(S(=O)(=O)Nc2ccc(Cl)nn2)cc1 | -15.1% |
| CCC(Oc1ccccc1)C(=O)N1CC(C)CC(C)C1 (stereo unspecified) | -6.0% |
| Clc1ccc(CNc2ccc(CNc3ncn[nH]3)cc2)cc1 | -1.0% |
| O=C(O)c1nc(N2CCCCC2)ncc1Cl | -10.3% |
| CC(C)C[C@@H](CC(=O)N[C@H](CC(=O)N[C@@H]1CCNC[C@H]1C(=O)N[C@H](CC(=O)N[C@@H](CCC(=O)O)CC(=O)O)Cc1ccccc1)C(C)C)NC(=O)[C@@H]1CCCC[C@H]1N | 0.0% |
| O=[N+]([O-])c1ccccc1S(=O)(=O)n1nnc2ccccc21 | -5.3% |
| O=C(COc1ccc(S(=O)(=O)NC2CCCCC2)cc1)NCCC1=CCCCC1 | -5.5% |
| C#CCOC(=O)c1ccc(-n2cncn2)nc1 | -15.5% |
| Cc1cccc(N(CC(=O)N2CCCC2)S(=O)(=O)c2ccccc2)c1 | -2.2% |
| C/C(=N/Nc1ccc(F)cc1)c1ccc(Cl)s1 | -18.4% |
| COC(=O)c1c(C)noc1-c1cc(C)on1 | -6.3% |
| CC1Cn2c(nnc2-c2cccc(Cl)c2)S1 (stereo unspecified) | -28.8% |
| CSc1nsc(SCC(=O)N2CCCc3ccccc32)n1 | -28.7% |
| COc1ccccc1C(=O)N1CCN=C1SC | -0.4% |
| CCN1CCN(S(=O)(=O)c2ccc(C)c([N+](=O)[O-])c2)CC1 | -5.0% |
| CCOC(=O)c1c(-c2ccc(C)o2)csc1NC(=O)CN1CCN(CC)CC1 | -3.3% |
| CCOc1ccc(CN2C(=O)CCC2(C)C(=O)NCc2cccnc2)cc1 (stereo unspecified) | -4.0% |
| COc1cc(-n2c(C)nc3cc(C(=O)NCc4ccco4)ccc32)cc(OC)c1OC | -28.2% |
| CCCCCCC1CC(CSc2ncn[nH]2)OC1=O (stereo unspecified) | -8.9% |
| CC1CCCCN1C(=O)Cn1cc(C(=O)c2ccco2)c2ccccc21 (stereo unspecified) | -26.3% |
| CCN(CC)C(=O)c1sc2nc(-c3cccs3)cc(-c3ccc(Cl)cc3)c2c1N | 6.31µM* |
| S=C(c1ccc(-c2cc(Cl)ccc2Cl)o1)N1CCCCC1 | 7.94µM* |
| O=C(CN1C(=O)C2C3C=CC(C3)C2C1=O)NCC1COc2ccccc2O1 (stereo unspecified) | -3.9% |
| COc1cccc(/C=N/NC(=O)c2cc(-c3ccc(C)cc3)n[nH]2)c1O | 39.8µM* |
| O=C(N/N=C/c1ccc(F)cc1)c1sccc1OCc1ccc(F)cc1 | -18.5% |
| CCOC(=O)c1cc2n(c1N)-c1ccccc1C2=O | 31.6µM* |
| NC(N)=N/N=C\c1c(Cl)cccc1Cl | -5.2% |
| CCCOc1cccc(C(=O)NC(=S)Nc2ccccc2)c1 | -20.2% |
| CCOC(=O)CSc1nncc2ccc(OC)c(OC)c12 | -5.5% |
| Cc1cccc2cc(C(c3nnnn3CC3CCCO3)N3CCOCC3)c(=O)[nH]c12 (stereo unspecified) | ? |
| Fc1ccc(CN2CCCCCCC2)cc1 | -5.0% |
| CCOc1ccc(CCNc2cc(C)nc3ncnn23)cc1OCC | -8.4% |
| CCCSc1nnc(Cc2cc(=O)[nH]c(=O)[nH]2)n1-c1cc(C)ccc1C | -8.7% |
| COc1ccccc1-n1cnc2cc(NS(=O)(=O)c3ccccc3)ccc21 | 14.1µM* |
| Oc1oc(-c2ccco2)nc1C=Nc1cccc(Cl)c1 | -1.8% |
| Cc1ccc(O)c(CNn2cnnc2)c1 | -7.9% |
| CCOC(=O)Cc1c(C)nc2c(C#N)c[nH]n2c1=O | -17.9% |
| Cc1cc(C)nc(-n2nc(C)c(Br)c2Nc2ccc(Br)cc2)n1 | -8.1% |
| O=C1CCCc2c1cc(-c1ccccc1)n2-c1ccc(O)cc1 | -13.9% |
| O=C1c2ccccc2C2=Nc3ccccc3SC(c3ccccc3F)C12 (stereo unspecified) | ? |
| CCCCOC(=O)Nc1nccs1 | -29.4% |

Other compounds.
| smiles | HPGD inh |
| --- | --- |
| Cc1ccc(C)c(S(=O)(=O)NCc2ccc(C(=O)N3CCCCCC3)cc2)c1 | 7.08µM* |
| CCCCn1c(SCC(=O)N2CCC(C)CC2)nc2cc(S(N)(=O)=O)ccc21 | 28.2µM* |
| O=C1C2CC=C(Cl)CC2C(=O)N1CCc1c[nH]c2ccccc12 (stereo unspecified) | -9.3% |
| CN(Cc1ccccc1)S(=O)(=O)c1ccc(Cl)nc1 | -22.4% |
| Cc1ccc(-c2csc3ncnc(SCC(=O)Nc4nnc(C)s4)c23)cc1 | -6.7% |
| COC(=O)c1nnn(CC(=O)NC(=O)Nc2ccc(F)cc2)c1C(=O)OC | -7.2% |
| O=C(OCCN1CCCC1)C1(c2ccccc2)CCCC1 | 0.1% |
| O=C1C=C(NCc2ccc(Cl)cc2)CCC1 | -8.8% |
| CCOC(=O)c1c(C)c(C(=O)N2CCN(C(=O)c3ccco3)CC2)c(C)n1C | -5.6% |
| CCN(CC)N=Nc1[nH]nc2nc(C)cc(C)c12 | -6.3% |
| Cc1nc(=O)c(-c2ccccc2)c(C)n1-c1ccc(O)cc1 | -5.0% |
| O=C(Nc1ccc(Oc2cccc3ccccc23)cc1)c1ccco1 | ? |
| COc1ccc(Nc2ccc(N3C(=O)CCCC3=O)cc2[N+](=O)[O-])c(OC)c1 | -15.7% |
| CCc1cc(=O)oc2cc(OCC=C(C)C)ccc12 | ? |
| Cc1nn(C)cc1NC(=O)Cn1nc(C(F)(F)F)cc1C1CC1 | 5.8% |
| CCn1nccc1C(=O)Nc1nccs1 | -27.8% |
| O=c1cc(CN2CCN(C/C=C/c3ccccc3)CC2)c2cc(O)ccc2o1 | -14.6% |
| CCOC(=O)CSc1nc2ccccc2c(=O)n1CCCCCC(=O)NCc1ccco1 | ? |
| Cc1cccc(NC(=O)CCC(=O)OCC(=O)c2ccc(Oc3ccc([N+](=O)[O-])cc3)cc2)c1 | -21.4% |
| COC(=O)c1ccc(Cn2nc(C)c(Cl)c2C)o1 | -16.3% |
| COc1ccc(Cn2c(SCC(=O)NCc3ccco3)nc3ccsc3c2=O)cc1 | -6.0% |
| C[C@H]1CCCC=CC2C[C@H](OC(=O)CN(C)C)C[C@@H]2[C@@H](O)/C=C\C(=O)O1 (stereo partly specified) | 0.6% |
| N=C1C(c2nc(-c3ccc(F)cc3)cs2)=C(O)CN1Cc1ccc(Cl)cc1 | -3.8% |
| O=C(Nc1cccc(F)c1)c1ccc(-c2ccccc2Cl)o1 | ? |
| COc1cc(C2SCC(=O)N2c2nnc(C34CC5CC(CC(C5)C3)C4)s2)cc(OC)c1OC (stereo unspecified) | -7.7% |

Part of the list above, with each value named:
c1n[nH]c(NCc2ccc3c(c2)OCO3)n1
  HPGD inh: 1.8%
CCc1ccc(C(=O)COC(=O)CNC(=O)CNC(=O)Cc2ccccc2)cc1
  HPGD inh: -10.9%
Cc1nc(N=Nc2cc(S(=O)(=O)O)ccc2S(=O)(=O)O)c(COP(=O)(O)O)c(C=O)c1O
  HPGD inh: ?
COc1ccc(Cn2c(SCC(=O)NCc3ccco3)nc3ccsc3c2=O)cc1
  HPGD inh: -6.0%
